Screens (PubChem)
AID504770: E. coli YBA685 growth inhibition, screen for V. cholerae RctB inhibitors. 130,000 compounds, 0.27% hits. E. coli YBA685 rctB-dependent plasmid, OD600 growth, 3 h; stronger effect = lower value. AID 504770. z-score (no concentration beside the values);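 active = z-score under -2 on both plates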;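 also: wells of about 30 µL received 100 nL stock; score is relative to mean and SD of the test wells; the first replicate is given; strong numbers were not always called active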
Ba CapD inh: inhibitors of Bacillus anthracis CapD enzyme | 140,000 compounds, 0.23% hits | purified CapD enzyme, fluorescence intensity read-out; stronger effect = lower value; some hits fall short of the stated cut | z-score (test concentration not listed) | AID 492967;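 active = z-score under -4 in either of two replicates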;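 also: stock transfer was 100 nL into about 40 µL; score is relative to mean and spread of the plate; one replicate is shown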
Numbers without * were called inactive; . = no result given; & = joins results of further samples. Outcome played no part in choosing rows; any-hit rate near 0.37%.

cpd | SMILES | AID504770 | Ba CapD inh
1 | O=C1CCc2c1[nH]c1ccc(OCc3ccccc3)cc21 | -0.4 | 2.3
2 | COc1cc(NC(=O)c2cc3n(n2)C(C(F)(F)F)CC(c2ccc(Br)cc2)N3)cc([N+](=O)[O-])c1 (stereo not drawn) | . | 0.19
3 | CC(C)C(C(=O)O)n1c(=S)[nH]c2ccccc2c1=O (stereo not drawn) | -0.45 | .
4 | CCOC(=O)c1cc(C#N)c(NCc2ccccc2)nc1-c1ccccc1 | . | 0.15
5 | COC(=O)c1cc(S(=O)(=O)NCC2CCN(CCc3cccs3)CC2)c[nH]1 | -1.3 | -1.1
6 | O=c1[nH]c2cc3c(cc2cc1CNCc1ccc2c(c1)OCO2)OCCO3 | -0.25 | .
7 | CCOC(=O)c1cc(C)nn1S(=O)(=O)c1ccc(Cl)c(Cl)c1 | -0.95 | -0.62
8 | CCN(CC)C(=O)CCc1nc2sc3c(c2c(=O)[nH]1)CCCC3 | 2.3 | .
9 | COc1ccc(C2=N/C(=C\c3ccc(C)o3)C(=O)O2)c(Cl)c1 | 1.4 | 6.5
10 | CC1(c2ccc(F)cc2)CC(=O)c2cc(O)ccc2O1 (stereo not drawn) | 0.65 | 1.2
11 | CC1(C)CC(=O)C2=C(C1)N(c1ccc(Br)cc1F)C(N)=C(C#N)C2c1ccsc1 (stereo not drawn) | . | 0.98
12 | Cc1ccc(NC(=O)CCc2nc3ccccc3c(=O)[nH]2)cc1 | -0.1 | .
13 | CC(=O)NC(Cc1ccc(O)cc1)C(=O)NN (stereo not drawn) | 1.5 | .
14 | N/N=C1\C(=N/O)CCc2nonc21 | -0.95 | .
15 | Nc1nc(CN2CCc3ccccc3C2)nc(Nc2ccccc2)n1 | 1.5 | 0.005
16 | C=CCNC(=O)c1scc2c1CCCC2 | -0.85 | 0.17
17 | Cc1noc(C)c1CSc1ncccc1C(=O)Nc1ccnn1C(C)C1CC1 (stereo not drawn) | -0.95 | .
18 | FC(F)(F)c1cc(N2CCC(n3cccc3)CC2)c2ccccc2n1 | 0.55 | 24
19 | CCCN(C(=O)c1cc(OC)c(OC)c(OC)c1)C1CCN(C)CC1 | . | -0.68
20 | COC(=O)c1ccc(-n2ncnc2-c2ccc(N(C)C)cc2)cc1 | 0.1 | -1.8
21 | O=C(Cn1cnc2c(nc3n2CCCCC3)c1=O)N1CCCc2ccccc21 | 0.25 | 0.6
22 | COc1ccc(/C=C(/NC(=O)c2ccccc2)C(=O)O)cc1 | -0.15 | -0.46
23 | N#Cc1c2c(c(N3CCCCC3)n3c1nc1ccccc13)CCC2 | 1.1 | 0.61
24 | O=C(CN1C(=O)C2C3C=CC(C3)C2C1=O)N1CC=C(c2ccccc2)CC1 (stereo not drawn) | -0.55 | -0.41
25 | CCC1(CC)N=C(c2ccccc2)C(=S)N1 | -0.15 | -0.44
26 | Cc1cnn(C(=O)c2ccc(Br)o2)c1 | -0.9 | 0.36
27 | CC(C)NC(=O)c1cnn2c(C(F)F)cc(-c3ccccc3)nc12 | -0.25 | .
28 | N/C(=N\NC(=O)c1ccccc1)c1cc2ccccc2oc1=O | -0.2 | 0.82
29 | O=C(NCCCN1CCOCC1)c1ccc(CN2C(=O)CCn3nccc32)cc1 | 0.8 | 0.47
30 | Cc1ccc(NC(=O)Nc2cccs2)c(Cl)c1 | 1.7 | -0.52
31 | COc1ccc(CN2C(=O)CC(Cc3ccc(C)cc3)C2=O)cc1OC (stereo not drawn) | 0.45 | 0.34
32 | COc1ccc(CNC(=O)c2nn3c(c2Br)NC(c2cccs2)CC3C(F)(F)F)cc1 (stereo not drawn) | . | -0.12
33 | CC1(C)OC2OC(C(=O)NNC(=O)CCCOc3ccc(Cl)cc3Cl)C3OC(C)(C)OC3C2O1 (stereo not drawn) | . | -0.2
34 | Cc1ccc(C2=NN(C(=O)c3cccnc3)C(c3ccccc3F)C2)cc1 (stereo not drawn) | . | -0.44
35 | N=c1cc(C2(O)CCCCC2)n2c(nc3ccccc32)s1 | 0.9 | 0.36
36 | CC(C)CCNS(=O)(=O)c1ccc2[nH]c3c(c2c1)CCCC3 | -0.2 | 2.3
37 | COc1ccccc1C(=O)Nc1ccc(C)cc1C | -0.5 | 6.6
38 | COc1cccc(CNCCCN2CCOCC2)c1OCc1ccc(F)cc1 | -0.1 | .
39 | CCCCCOC(=O)C1=C(C)N(C)C(=O)NC1c1ccc(OCc2ccccc2)cc1 (stereo not drawn) | . | -0.07
40 | CC1(C)Cc2c(c(N3CCOCC3)nc3sc4c(NCc5ccccc5)nnnc4c23)CO1 | . | -0.52
41 | O=C1/C(=C\c2ccccc2)SC(=S)N1CN1CCCCC1 | . | -1.9
42 | CC(C)(Oc1ccc(Cl)cc1)C(=O)Nc1nnc(C(F)(F)F)s1 | 0.1 | 0.14
43 | Cc1cccc(CN2CCN(CC(=O)NC3CCCCCC3)C2=O)c1 | -0.8 | 0.15
44 | Cc1ccc(OCCC(=O)O)cc1 | -0.6&1.5 | -0.43&0.3
45 | COc1ccc(/C=C/C(O)=C(\C#N)c2nnc(N3CCOCC3)n2-c2ccccc2)cc1OC | 0.3 | .
46 | COC(=O)Oc1cncc(C(=O)O)c1 | 0.2 | -0.69
47 | NC1=NC(=O)/C(=C\c2ccc(-c3ccc(Cl)c([N+](=O)[O-])c3)o2)S1 | . | -0.15
48 | Cc1nc2ccccc2c(=O)n1-c1nc2ccccc2n1C | -0.4 | 55
49 | CCn1nc(C(=O)N(C)Cc2ccc(OC(F)F)cc2)c2ccccc2c1=O | -1.8 | .
50 | COc1ccccc1N1CC(C)(C)C(=O)N(C(=O)c2c(F)cccc2Cl)C1=S | . | 0.17

(more compounds)
cpd | SMILES | AID504770 | Ba CapD inh
51 | Cc1ccc(OC(=O)CCC(=O)N2CCc3ccccc32)cc1 | 1.8 | .
52 | Cc1sc2nc(-c3ccccc3Cl)n(CC(=O)Nc3ccccc3C(F)(F)F)c(=O)c2c1C | . | 4.1
53 | O=C(NCc1ccco1)NC(=O)c1ccccc1 | -1.1 | .
54 | O=C(COC(=O)c1cccnc1Cl)c1ccccc1Br | -0.4 | -0.055
55 | Oc1ccc(Br)cc1C=Nc1cc2c(cc1Br)OCCO2 | -0.2 | -0.22
56 | O=C(CCCCCN1C(=O)C2C3C=CC(C3)C2C1=O)Nc1ccc2ncccc2c1 (stereo not drawn) | -0.15 | 6.4
57 | Cn1ncc2c(NCC3CCCO3)ncnc21 (stereo not drawn) | 1.5 | -2.4
58 | CC(C)CN(CC(C)C)C(=O)c1noc2c1CC(C)CC2 (stereo not drawn) | 0.55 | -0.35
59 | Cc1ccc(C(=O)OCC(=O)NCc2ccc3c(c2)OCO3)cc1S(=O)(=O)N1CCOCC1 | -1 | .
60 | CC(=O)CC(c1ccccc1)c1c(O)c2ccccc2oc1=O (stereo not drawn) | -0.35 | 0.11
61 | Cc1ccc2c(c1)NCC(C(=O)NCc1ccccc1)O2 (stereo not drawn) | -0.15 | .
62 | CC(C)(C)c1cc2cc(NC(=O)c3cc(Cl)nc(Cl)c3)ccc2[nH]1 | . | -0.83
63 | Cc1ccc(S(=O)(=O)Nc2cc(C)c3c(c2)-c2ccccc2S(=O)(=O)N3)cc1 | . | 1.3
64 | CNC(=O)N(C1=NCCCCC1)c1ccc(C)cc1 | -0.45 | .
65 | CCCCCC(C)C(C)c1cc(OCC(=O)N2CCN(C3CC3)CC2)c2c(c1)OC(C)(C)C1=C2CCC1 (stereo not drawn) | . | 0.32
66 | Cc1nnc(COc2ccccc2C#N)o1 | -0.4 | .
67 | O=c1c2ccccc2nc2n1C(CSc1cccc(Cl)c1Cl)CS2 (stereo not drawn) | . | 0.095
68 | O=C1CCN(Cc2ccccc2)C(=O)N1c1ccccc1 | -0.4 | 0.41
69 | Cc1nc(-c2ccncc2)sc1C(=O)Nc1ccc(Br)cc1 | . | 0.15
70 | CC1CN(c2nn3c(=O)c4ccccc4nc3c3ccccc23)CC(C)O1 (stereo not drawn) | 0.5 | .
71 | N#Cc1c2n(cnc1=O)CCCCC2 | 0.85 | 1
72 | COc1ccc(Cn2ccc(=O)c(Cc3c(Cl)cccc3Cl)c2C)cc1 | . | -0.21
73 | O=C(c1c[nH]c(C(=O)C(Cl)(Cl)Cl)c1)c1ccccc1C(F)(F)F | . | -0.56
74 | Nc1nc(CSc2nc3ccccc3s2)nc(Nc2ccccc2)n1 | 2 | -0.2
75 | O=C(NCCc1cc2ccccc2[nH]1)c1ccc2snnc2c1 | -0.85 | -0.33
76 | CC(O)(CS(=O)(=O)Cc1ccccc1Cl)c1ccc(Cl)cc1 (stereo not drawn) | . | -0.035
77 | Cc1nn(C)c(C)c1Nc1cnn(-c2ccccc2)c(=O)c1Cl | 1.2 | .
78 | O=C(Nc1ccc2ccccc2n1)c1ccccc1 | 2 | -0.24
79 | CS/C(Nc1ccccc1)=C(/C#N)S(=O)(=O)c1ccc(C)cc1 | -0.4 | 0.35
80 | C=C(C)Cc1c(COC)nc(SCC(=O)C(C)(C)C)[nH]c1=O | 0.05 | -0.65
81 | C=CCn1c(=O)/c(=C2/Sc3ccccc3N2CC)s/c1=C1\SC(=S)N(C)C1=O | . | 0.24
82 | O=C(CSc1ncn[nH]1)c1ccc(Br)cc1 | . | 0.1
83 | CCN(CC)c1nc(N2CCOCC2)nc2ccccc12 | 0.8 | .
84 | Cc1ccc2nc(NC(=O)C3CC(O)CN3C(=O)Oc3ccccc3)sc2c1 (stereo not drawn) | -0.7 | -0.26
85 | CCN1C(=O)c2cccc3c(S(=O)(=O)Nc4ccccc4)ccc1c23 | 0.35 | -0.3
86 | N#CC1=C(c2ccccc2)C(c2ccccc2)OC1=O (stereo not drawn) | 0.65 | 4.7
87 | Clc1ccc(CSc2nnc(COc3ccccc3)o2)cc1 | -1.3 | -0.18
88 | O/N=C/c1nn(-c2ccccc2)cc1Br | 0.2 | -0.32
89 | O=C(Oc1ccc(C=Nc2ccc(F)c(F)c2F)cc1)c1cccnc1 | -0.75 | -1.2
90 | CC1=C(O)C(=O)C(/C=N/NC(N)=O)C1 (stereo not drawn) | -0.15 | -2.2
91 | Cc1cc(C)nc(N(C#N)CN2C(=O)c3ccccc3S2(=O)=O)n1 | . | -0.5
92 | Cc1csc(Nc2ccc(Cl)cc2)n1 | -1.1 | -0.12
93 | Cc1ccc2c(c1)C1CN(C)CCC1N2C(=O)CNCCCO (stereo not drawn) | . | 0.88
94 | O=C(c1ccncc1)N1N=C(C(F)(F)F)CC1(O)c1ccc(F)cc1 (stereo not drawn) | . | -0.32
95 | Cc1cc(C)c(NC(=O)CS(=O)CC(=O)N2CCN(c3ccccc3)CC2)c(C)c1 (stereo not drawn) | -0.15 | .
96 | COc1ccc(-c2ccc(CCC(=O)O)n2C(C)C)cc1 | 1.1 | 16
97 | COC(=O)Cn1[nH]c(=O)c2ccccc2c1=O | -0.5 | .
98 | O=c1[nH]c(CN2CCN(S(=O)(=O)c3ccccc3C(F)(F)F)CC2)nc2scc(-c3cccs3)c12 | 0.8 | .
99 | CO/N=C/NC(=O)C1=NOC(CNc2ncc(C(F)(F)F)cc2Cl)C1 (stereo not drawn) | . | -0.62
100 | CC(=O)Nc1cc(C(=O)N2CCC3(CC2)OCCO3)ccc1Sc1ccc(F)cc1 | -0.9 | -0.76

Next results follow.
cpd | SMILES | AID504770 | Ba CapD inh
101 | CCOC(=O)CSc1nc2c(sc(=S)n2-c2ccc(OCC)cc2)c2nc3ccccc3n12 | . | 3.8
102 | COC(=O)c1ccc(CSc2ccccc2C)o1 | -0.1 | 0.56
103 | CNCC(O)COc1ccccc1 (stereo not drawn) | 0 | .
104 | Cn1cccc1C(=O)Nc1cccc(C(F)(F)F)c1 | 0.45 | .
105 | N#CCCN(C(=O)c1ccccc1Cl)C1CCCCC1 | . | -0.21
106 | COC(=O)c1ccc(-c2ccco2)n1CC(=O)NCCN1CCN(C)CC1 | -0.6 | 0.03
107 | CC(C)(C)n1nnnc1C(c1ccc2ncccc2c1)N1CCc2ccccc21 (stereo not drawn) | -1.1 | .
108 | CC(C)(C)c1ccc(NC(=O)c2cnccn2)cc1 | -0.5 | -0.64
109 | N/C(CSc1cccs1)=N\OC(=O)c1cc(C(F)(F)F)cc(C(F)(F)F)c1 | . | 0
110 | O=C(Cn1c(=O)n(-c2ccccc2)c(=O)c2cc(-c3ccccc3)sc21)c1cccs1 | 1.6 | 2.2
111 | CCOC(=O)C1=C(c2ccccc2)N2CCS(=O)(=O)N=C2S1 | -1.5 | .
112 | O=C(CCCCCNC(=O)OCc1ccccc1)NNC(=O)c1ccccc1NC(=O)c1cccs1 | . | -0.15
113 | Cn1c(O)c(/C=C2\C=Nc3ccccc32)sc1=S | -0.1 | -0.51
114 | CCC(Sc1nccn1C)C(=O)Nc1ccc(S(N)(=O)=O)cc1 (stereo not drawn) | 2.4 | -0.21
115 | O=C(Cc1ccccc1)NN1C(=O)c2ccccc2C1=O | -0.1 | .
116 | Cc1nc2ccccn2c1C(=O)NC1CCCC1 | -0.1 | .
